Assay outcomes from PubChem.
HIV Env fusion: blocks HIV Env-driven cell-cell fusion. HeLa-JRFL Env/CEM21 cell fusion, luciferase. inhibition, % at 12.3 µM. actives 1.1% (n = 360,000). AID 651610;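 active = mean replicate inhibition score of at least 50 and every replicate individually at or above 50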;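 note: 0% = plate neutral controls and 100% = maraviroc near 300 nM; one replicate is shown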
PABP FP inh: blocks human PABP binding to poly(A) RNA | P11940 | actives 1% (n = 290,000) | inhibition, % at 35 µM | fluorescence polarization;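 active = 50% or more with normal probe brightness, or confirmed in later tests; about a fifth of its hits are not listed in these tables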;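 note: calls also rest on retests at 20 µM and on dose response follow-up; controls were probe without protein and protein plus probe with vehicle; some compounds called inactive have numbers as strong as hits; many hits fall short of the cut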
Target sequence (P11940 whole entry, looked up): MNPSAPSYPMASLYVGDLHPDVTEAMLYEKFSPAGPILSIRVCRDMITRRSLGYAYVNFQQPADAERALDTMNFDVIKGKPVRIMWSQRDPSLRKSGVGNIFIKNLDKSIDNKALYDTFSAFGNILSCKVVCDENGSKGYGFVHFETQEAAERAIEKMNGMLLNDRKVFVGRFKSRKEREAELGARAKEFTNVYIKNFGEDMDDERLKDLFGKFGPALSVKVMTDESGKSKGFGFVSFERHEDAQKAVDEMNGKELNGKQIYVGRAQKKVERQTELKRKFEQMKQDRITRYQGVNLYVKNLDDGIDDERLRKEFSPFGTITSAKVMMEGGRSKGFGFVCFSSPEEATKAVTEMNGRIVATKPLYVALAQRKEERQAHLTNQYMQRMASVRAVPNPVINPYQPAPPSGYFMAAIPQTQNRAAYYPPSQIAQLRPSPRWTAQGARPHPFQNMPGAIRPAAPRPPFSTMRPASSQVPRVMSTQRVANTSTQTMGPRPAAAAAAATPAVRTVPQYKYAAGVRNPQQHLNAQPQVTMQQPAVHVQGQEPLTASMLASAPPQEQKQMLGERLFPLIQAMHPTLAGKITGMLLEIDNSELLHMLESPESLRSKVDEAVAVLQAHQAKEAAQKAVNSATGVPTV
MT1-MMP act inh: MT1-MMP (human) activation inhibition; HT1080 RFP-PRO-GFP cells, GFP/RFP ratio fluorescence, overnight; percent of plate control window, DMSO zero; GFP/RFP ratio change, % at 20 µM; actives 0.061% (n = 360,000); AID 651647;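 active = GFP/RFP ratio change of at least 30% with cell ATP level not reduced by more than half and red fluorescence within 50% of control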; note: strong numbers were not always called active
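Assay system – RFP-PRO-GFP reporter HT1080 cells · Compound dosing – single dose of 20 µM compound, 1% DMSO final · Incubation – overnight compound exposure at 37 °C · Measure – GFP/RFP fluorescence ratio · Benchmarks – DMSO wells and RFP-L50D-GFP cells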
UUG fidelity: modulators of start codon recognition fidelity in yeast; S. cerevisiae UUG-firefly luciferase reporter, luminescence/redox ratio; activity score, % at 18.7 µM; actives 0.13% (n = 350,000);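 active = replicate mean at a twofold rise or more, about +100% in these data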;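 note: firefly luciferase made from a UUG start codon reports start codon fidelity; reporter light over untreated wells divided by growth signal over untreated wells; some hits fall short of that in this replicate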
CSC inhib: blocks cancer stem cells; cancer stem cell-like cells viability, luminescence; inhibition, % at 7.5 µM; actives 1.1% (n = 300,000);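 active = mean at 75% or more and at least half the replicates too; tested in HMLE shEcad cells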;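 note: 0% = median of negative and 100% = median of positive control wells; the first replicate is given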
Rce1 inhib: blocks yeast Ras-converting enzyme; Q03530; yeast membranes, quenched prenylated peptide cleavage fluorescence; calls only; actives 0.27% (n = 290,000); AID 2563;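 active = fall in fluorescence gain of 50% or more versus controls, with final raw signal at or below 3038400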;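 note: plate controls were neutral control wells for no effect and wells lacking membranes for full effect; tested at 10 µM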
eIF4H FP inh: inhibitors of RNA binding by human eIF4H; actives 0.94% (n = 290,000); Q15056; AID 2012; eIF4H fluorescence polarization binding assay; inhibition, % at 35 µM;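 active = 50% or more with normal probe brightness, or confirmed in later tests; about a fifth of its hits are not listed in these tables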;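 note: calls also rest on retests at 20 µM and on dose response follow-up; 0% = protein and probe with vehicle and 100% = probe without protein; strong numbers were not always called active; many hits fall short of the cut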
eIF4H FP inh retest: second read-out of eIF4H FP inh, no call of its own (marks repeat the call); inhibition, %; compound at 20 µM; confirmation average;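 mean of two retest wells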
PABP FP inh retest: further read-out of PABP FP inh, marked with its call; inhibition, %; compound at 20 µM; confirmation repeats;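 mean of two retest wells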
MT1-MMP act inh RFP: also measured in MT1-MMP act inh; calls as there; RFP signal change, %; measured here: RFP expression control read;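 0 = vehicle wells; hits needed this value within 50% of zero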
* hit, by the source's call; i = inactive; nt = no result given.

SMILES	HIV Env fusion	PABP FP inh	MT1-MMP act inh	MT1-MMP act inh RFP	UUG fidelity	CSC inhib	Rce1 inhib	eIF4H FP inh	others
O=C(OCCOCCN=C1NS(=O)(=O)c2ccccc21)c1ccccc1Br	22	8	4	5	-4	nt	i	-3
COc1ccc(CNC(=O)C(C)N2CCN(c3ccc(C(C)=O)cc3)CC2)cc1 (stereo not drawn)	-9	3	0	-1	3	19	i	1
COc1cc(C(=O)Nc2nc3ccccc3[nH]2)cc(OC)c1OC	-25	-1	23	6	-6	-6	i	3
CSc1nc(NC(C)C)nc(N2CCOCC2)n1	nt	-5	0	3	-23	-7	i	1
COc1ccccc1N(CC(=O)Nc1ccc(S(=O)(=O)N2CCOCC2)cc1)S(C)(=O)=O	14	9	2	4	-4	-8	i	10
COc1ccccc1C(=O)NCCC(=O)NC(C)CCc1ccccc1 (stereo not drawn)	-3	nt	0	4	nt	3	i	nt
Cc1ccc(S(=O)(=O)CCC(=O)OCC(=O)Nc2ccc(N3CCOCC3)cc2)cc1	nt	nt	-3	-4	-14	-4	i	nt
COc1ccc(-c2cnnc(N/N=C/c3ccc(O)c(OC)c3)n2)cc1	-140	-16	5	-11	-7	57	i	-20
CN(C)C(=O)c1ccc2c(c1)n(C)c(=O)n2C	nt	-6	6	0	-7	-8	i	-3
COc1ccc(NS(=O)(=O)c2cccc(C(=O)N3CCC3)c2)cc1	-6	nt	4	5	-15	-8	nt	nt
Cc1cccc(C(=O)n2cnnc2N)c1	-12	3	0	1	nt	-6	i	-1
CC1CCCN(c2ccc3nncn3n2)C1 (stereo not drawn)	5	1	0	4	-19	-10	i	-7
CCCCCC(=O)N1C[C@@H](n2cc(-c3ccc(F)cc3)nn2)[C@H](O)C[C@@H]1c1ccc(Cl)cc1	-16	nt	3	-7	5	nt	nt	nt
CN1N=C2c3ccccc3CCC2C1c1ccc(Cl)cc1 (stereo not drawn)	-27	-10	-1	-1	-2	-10	nt	-6
O=S(=O)(Nc1nc2ccccc2nc1NCC1CCCO1)c1cccs1 (stereo not drawn)	nt	10	5	-5	8	14	i	2
CCN(CCn1cccn1)C(=O)CCc1nnc(CCCc2ccccc2)o1	-7	5	-3	3	nt	-16	i	5
Nc1nc(N2CCN(c3cccc(Cl)c3)CC2)n[nH]1	-10	-4	3	3	nt	-9	i	5
CCC(C)(C)C1CCc2[nH]nc(C(=O)NC3CCCC3)c2C1 (stereo not drawn)	11	nt	3	-10	4	nt	nt	nt
Nc1nc(NC(=O)/C=C/c2ccccc2)nn1-c1ccccc1	-5	-3	-1	-1	nt	-10	i	-8
COc1cc(C(C)=O)ccc1O	nt	nt	2	6	0	-11	i	nt
COC(=O)c1[nH]c2cccc(OC)c2c1NC(=O)CCN1CC(C)CC(C)C1 (stereo not drawn)	nt	2	-2	3	-8	-3	nt	-10
NS(=O)(=O)c1ccc(-n2nc(C(=O)O)cc2-c2ccc(Cl)cc2)cc1	2	-10	-1	5	nt	-3	i	6
COc1ccccc1N1CCN(C(=O)c2cccc(N3C(=O)NC4CC3(C)Oc3ccccc34)c2)CC1 (stereo not drawn)	nt	5	0	-4	-16	-2	i	1
O=C(Nc1ccccc1)c1cc(C2CCCCN2C(=O)OCc2ccccc2)on1 (stereo not drawn)	14	nt	-5	-5	-28	nt	nt	nt
Cc1ccc(Cn2cc(C(=O)NN)c(=O)c3ccc(F)cc32)cc1	20	9	0	0	-9	-9	i	5
Cc1ccccc1C(=O)Nc1ccc2c(c1)nc(CCNC(=O)c1ccco1)n2C	-2	5	1	1	-17	0	i	9
Cc1nnc2ccc(-c3ccc(NC(=O)c4ccco4)cc3)nn12	9	-13	4	8	nt	8	i	74*	eIF4H FP inh retest=51*;PABP FP inh retest=43
CC(C)c1csc(CN2CCC(CO)(Cc3ccccc3)CC2)n1	28	1	0	-6	nt	10	i	10
COc1ccccc1/C=C/C1=NC(=C\N(C)C)/C(=O)O1	nt	-2	-2	-2	-28	-12	i	0
CCCS(=O)(=O)N1CCN=C1SCc1cccc2ccccc12	10	5	0	2	nt	nt	i	-2
COc1ccc(NC(=S)N2CCN(Cc3ccc(C)cc3)CC2)cc1	12	0	1	-5	nt	-9	i	2
CC(C(=O)Nc1cccc(Br)c1)c1ccc([N+](=O)[O-])cc1 (stereo not drawn)	6	10	2	-1	nt	2	i	6
CCOC(=O)CNC(=O)CSc1ncnc2c1cnn2-c1ccc(OC)cc1	nt	-3	-2	1	-9	3	i	-5
O=C(Cn1nnc2ccccc2c1=O)N1CCCc2ccccc21	5	2	3	2	-1	-15	i	-7
CC(=O)Nc1ccc(Nc2ncnc3c2cnn3-c2cccc(C)c2)cc1	-133	6	2	4	-17	7	i	6
COC(=O)[C@@]1(Cc2ccc(F)cc2)[C@H]2c3cc(C(=O)N4CCCC4)n(CCc4ccc(O)c(O)c4)c3C[C@H]2CN1C(=O)c1ccccc1	nt	-8	nt	nt	nt	13	i	11
COc1ccc(OC)c(C(=O)COC(=O)c2c(OC)cccc2OC)c1	nt	-20	-2	-1	-23	-12	i	8
COc1cccc(OCC(O)CN(CCO)Cc2ccccc2)c1 (stereo not drawn)	nt	-6	-1	-2	-9	-12	i	-3
COc1ccc(CNC(=O)c2ccc(Cn3nc(C)c([N+](=O)[O-])c3C)o2)cc1	13	-4	-3	3	nt	-8	i	-5
COc1cccc(NS(=O)(=O)c2c(C(=O)N3CCCCCC3)c(C)n(C)c2C)c1	18	0	-3	-2	-5	0	i	-3
COc1ccc(CNc2ncnc3ccccc23)cc1	77*	-1	0	-29	-3	5	i	-3
CC(C)(C)NC(=O)COC(=O)CCC(=O)c1ccc(F)cc1	0	-3	0	2	nt	-10	i	4
C#CCOc1ccc(C2C(C#N)=C(N)Oc3cc(O)ccc32)cc1 (stereo not drawn)	-3	4	-22	-3	-12	3	i	14
COC(=O)Cc1ccc(NC(=S)N2CCN(c3cc(Cl)ccc3C)CC2)cc1	25	4	3	-9	nt	3	i	6
COCC(=O)Nc1ccc2c(c1)OCO2	-6	3	-2	-1	nt	nt	i	-7

Quoted at random: 2 records from the list
SMILES	HIV Env fusion	PABP FP inh	MT1-MMP act inh	MT1-MMP act inh RFP	UUG fidelity	CSC inhib	Rce1 inhib	eIF4H FP inh	others
COc1ccc(CNC(=O)c2ccc(Cn3nc(C)c([N+](=O)[O-])c3C)o2)cc1	13	-4	-3	3	nt	-8	i	-5
COc1ccc(NC(=S)N2CCN(Cc3ccc(C)cc3)CC2)cc1	12	0	1	-5	nt	-9	i	2

Additional structures
SMILES	HIV Env fusion	PABP FP inh	MT1-MMP act inh	MT1-MMP act inh RFP	UUG fidelity	CSC inhib	Rce1 inhib	eIF4H FP inh	others
CCOC(=O)c1sc(NC(=S)NC(=O)CC(C)C)cc1C	-25	0	-4	-3	0	nt	i	-13
NC(c1ccccc1)c1ccncc1 (stereo not drawn)	-12	5	0	2	-5	-3	i	-12
O=C(CC(SCCO)c1ccc([N+](=O)[O-])cc1)c1ccco1 (stereo not drawn)	-10	3	-4	-3	-9	-9	i	5
CCOc1ccc(N(C)S(=O)(=O)c2ccc(C)c(C(=O)NCc3cccs3)c2)cc1	nt	nt	0	-5	-2	1	nt	nt
CC(=O)C1=C(C)N(CC2CC2)C(=O)N[C@H]1c1cccs1	nt	4	3	2	2	-23	nt	-4
Cc1ccc(N2C(=O)N(CC(=O)Nc3ccc(C)cc3C)C(=O)C2C)cc1 (stereo not drawn)	2	-6	2	-4	nt	8	i	-2
CCC(C)NC(=O)c1cccc(OCc2c(C)noc2C)c1 (stereo not drawn)	2	-4	1	0	nt	-12	i	35
CCN(c1cccc2ccccc12)S(=O)(=O)c1ccc(Cl)nc1	2	3	0	-2	-12	-23	i	-1
CCCCCCOc1ccc(C(CC(=O)NC)C(=O)O)cc1 (stereo not drawn)	-13	4	-1	2	-4	-12	i	3
Cc1nn(C)c(Nc2ccc(Br)cc2)c1Br	52	-2	-5	-22	nt	-12	i	-11
CN(C(=O)C1CCCCC1)C1CCS(=O)(=O)C1 (stereo not drawn)	nt	nt	4	3	-2	-5	i	nt
CCOC(=O)c1ccc(OCCOc2ccccc2C)cc1	3	-7	-2	2	-10	8	i	-7
CCCN1CCc2[nH]c(=S)[nH]c(=O)c2C1	nt	5	1	4	nt	nt	i	7
CCC1=Nc2ccc(Br)cc2C(c2ccccc2)N1CC(=O)OC (stereo not drawn)	-473	2	-1	-5	-7	-5	i	-4
CCCN(C(=O)CSCC(=O)Nc1ccc(OC)cc1)c1c(N)n(Cc2ccccc2)c(=O)[nH]c1=O	nt	nt	-1	0	-8	-3	i	nt
C=CCN1C(=O)C(CC(=O)O)S/C1=N/N=C/c1ccc(N(CC)CC)cc1 (stereo not drawn)	nt	nt	-12	0	-14	5	nt	nt
CCOc1cccc(/C=C/c2ccc3cccc(O)c3n2)c1O	-69	-2	-4	-7	-22	57	i	14
O=C1CC(SCCO)C(=O)N1c1ccccc1 (stereo not drawn)	nt	-9	2	-3	-12	nt	i	-3
Cc1cccc(CNC(=O)C2CCC(=O)N(Cc3ccccc3F)C2)n1 (stereo not drawn)	nt	-2	-1	3	-21	nt	i	-3
CC(=O)Nc1ccc(Cc2ccncc2)cc1	-75	28	-1	2	-13	-8	i	2
CC(C)C(=O)Nc1cccc(NC(=O)c2ccc(Cl)cc2Cl)c1	8	4	2	-1	nt	-1	i	-5
CC1C(=O)N(Cc2cn(Cc3ccco3)nn2)CCS(=O)(=O)N1Cc1ccc(-c2cccc(CO)c2)cc1 (stereo not drawn)	32	nt	2	-4	1	nt	nt	nt
O=C(NN1C(=O)c2ccccc2C1=O)C1CC2CCC1C2 (stereo not drawn)	14	2	nt	nt	nt	-10	i	7
c1ccc(-c2ccccc2OCCn2cncn2)cc1	35	2	-4	-2	-13	4	i	4
CC(C)CC(N)c1csc(NC(=O)c2cc(C(C)(C)C)nn2Cc2ccccc2)n1 (stereo not drawn)	-17	nt	-3	-12	6	nt	nt	nt
O=C(NC1=NCCS1)C1CC(=O)N(c2ccc(Cl)cc2)C1 (stereo not drawn)	-1	0	2	6	2	-7	i	-9
CCCn1c(SCC(=O)Nc2ccc(NC(=O)CC)cc2)nc2c1c(=O)n(C)c(=O)n2C	-6	13	-2	1	-1	-16	i	-4
CCCn1nnnc1SCC(=O)NCc1ccccc1	7	-5	0	-1	-11	5	i	12
COc1ccc(/C=C/C(=O)NC(=S)NNC(=O)c2ccco2)cc1	nt	-13	6	-3	-6	1	i	3
CCOC(=O)CCn1cc(F)c(=O)n(Cc2ccccc2)c1=O	-15	2	1	1	-25	-20	i	-3
O=C(CNS(=O)(=O)/C=C/c1ccccc1)OCC(=O)N1CCC(Cc2ccccc2)CC1	nt	-5	3	2	4	3	i	-1
COCCN(C(=O)c1ccc(OC2CCN(S(=O)(=O)N(C)C)CC2)cc1)C(C)C	-10	-1	6	-2	1	2	i	0
O=C(Cc1ccc(F)cc1)N[C@@H]1c2ccccc2CC[C@H]1OCc1ccccc1	0	nt	-8	-10	-13	nt	nt	nt
COc1ccc(Cn2nnnc2C(C(C)C)N(Cc2ccco2)Cc2cccs2)cc1 (stereo not drawn)	nt	-7	-12	-20	-2	77*	i	-16
CC(=O)c1sc(NC(=O)C2CC(=O)N(Cc3ccco3)C2)nc1-c1ccccc1 (stereo not drawn)	-161	nt	-6	-6	nt	4	i	nt
O=C(NCCc1ccccc1)c1n[nH]c(=O)c2ccccc12	4	-1	-1	3	-11	-18	i	-2

In the list so far, 2 have a tert-butyl group:
SMILES	HIV Env fusion	PABP FP inh	MT1-MMP act inh	MT1-MMP act inh RFP	UUG fidelity	CSC inhib	Rce1 inhib	eIF4H FP inh	others
CC(C)(C)NC(=O)COC(=O)CCC(=O)c1ccc(F)cc1	0	-3	0	2	nt	-10	i	4
CC(C)CC(N)c1csc(NC(=O)c2cc(C(C)(C)C)nn2Cc2ccccc2)n1 (stereo not drawn)	-17	nt	-3	-12	6	nt	nt	nt

A portion of the library; count on the stated rates, not on these rows.
